# miR-21 FLuc: miR-21 reporter, rising signal. HeLa miR-21 FLuc reporter, luciferase, 48 h. 340,000 tested, under 10 active. Potency, µM (top dose mostly 38.3 µM), for inactives: at the top dose reporter change, positive = more light; active = well fitted rising curve with a large enough effect; inconclusive = small, poorly fitted or top-dose-only effect; inactive = no such curve, though single readings can be large or run the other way;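 note: % of control where 0% means no effect; miR-21 action dims this reporter so a rising signal means less miR-21 action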
#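 HeLa miR-21-FLuc reporter line, endogenous miR-21; 2000 cells/well in DMEM/10% FBS; compound titration up to ~40uM final, 48 h, 37 degree Celsius; luciferase detection reagent, 15 min lysis, CCD luminescence.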
# GLA inh pH 4.5: blocks human alpha-galactosidase A at pH 4.5; activity change, negative = inhibition, % at 105 µM; 230,000 tested, under 10 active; purified enzyme, 4-MU-alpha-Gal fluorescence, pH 4.5; inconclusive = small, poorly fitted or top-dose-only inhibition, or a rising curve; inactive = flat fitted curve, though single readings scatter; no compound was filed as active;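 note: 0% = full activity with enzyme and -100% = basal without enzyme; dose as in the result columns while the protocol names 77 µM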
# Rango-impB inh: Rango-importin beta binding inhibition | actives 0.031% (n = 340,000) | Potency, µM (doses to about 92.2 µM), for inactives: at the highest dose inhibition of complex formation | Q14974 | Rango CFP/YFP FRET sensor + importin beta, 45 min; active = rising FRET ratio curve, often small or poorly fitted; inconclusive = mostly compound fluorescence or quenching in the first reads; inactive = flat curves in all reads;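 note: potency is the fitted concentration of half-maximal effect; 0% = DMSO wells and 100% = buffer wells lacking importin beta; nearly all actives have a fitted effect of over 15% in size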
# Target sequence (Q14974 whole entry, looked up): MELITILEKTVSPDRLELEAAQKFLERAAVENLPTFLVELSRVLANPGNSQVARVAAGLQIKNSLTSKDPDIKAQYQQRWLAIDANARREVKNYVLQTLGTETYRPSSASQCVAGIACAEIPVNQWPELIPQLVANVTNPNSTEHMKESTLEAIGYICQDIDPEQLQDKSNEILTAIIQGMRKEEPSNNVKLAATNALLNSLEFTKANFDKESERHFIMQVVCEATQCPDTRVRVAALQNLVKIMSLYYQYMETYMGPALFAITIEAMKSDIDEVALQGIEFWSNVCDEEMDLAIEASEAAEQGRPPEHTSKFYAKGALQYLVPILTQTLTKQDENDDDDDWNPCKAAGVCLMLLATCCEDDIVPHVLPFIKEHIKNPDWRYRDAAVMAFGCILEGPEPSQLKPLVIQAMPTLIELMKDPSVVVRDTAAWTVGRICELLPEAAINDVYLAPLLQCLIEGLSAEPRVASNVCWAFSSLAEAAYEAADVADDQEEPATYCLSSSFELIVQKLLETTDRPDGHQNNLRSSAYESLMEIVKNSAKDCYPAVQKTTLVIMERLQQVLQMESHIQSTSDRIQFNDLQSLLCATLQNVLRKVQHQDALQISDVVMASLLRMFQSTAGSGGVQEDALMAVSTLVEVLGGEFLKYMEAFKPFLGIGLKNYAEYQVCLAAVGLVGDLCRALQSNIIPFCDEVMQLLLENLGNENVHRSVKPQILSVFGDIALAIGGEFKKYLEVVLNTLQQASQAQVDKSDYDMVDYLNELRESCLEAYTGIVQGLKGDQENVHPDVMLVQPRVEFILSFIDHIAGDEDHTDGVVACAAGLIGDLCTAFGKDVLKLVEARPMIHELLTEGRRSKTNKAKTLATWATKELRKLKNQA
#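 FRET biosensor Rango (snurportin 1 IBB between N-terminal EYFP and C-terminal Cerulean), 50 nM in PBS/1 mM DTT/0.02% Tween-20/0.1% BSA, preincubated 5 min RT with compound; 0.125 microM importin beta added, 45 min RT, CFP/YFP FRET ratio read.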
# Rango release inh: inhibition of RanGTP-driven Rango-importin beta dissociation | Biochemical FRET Rango-importin beta, RanGTP-induced dissociation | Potency, µM (titrated, usually from 46.1 µM), for inactives: at the highest dose activity change, negative = inhibition | actives 0.071% (n = 340,000) | AID 540253; active means falling FRET ratio curve, often poorly fitted, with flat reads before Ran was added; inconclusive means other falling curves, or compound fluorescence or quenching; inactive means flat or rising ratio curve;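 note: potency is the fitted concentration of half-maximal effect; % of control where 0% means no effect; nearly all actives have a fitted effect of over 45% in size; -100% = wells without RanGTP and RCC1; the record marks most hits as doubtful in a second field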
#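 Compounds preincubate 5 min with complex of recombinant Rango and importin beta in PBS with 1 mM DTT. Ran (0.6 uM) loaded with 2 mM GTP plus 0.2 uM RCC1 starts dissociation; FRET is recorded 45 min later.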
# * hit, by the source's call; ? = inconclusive; nt = not tested or not shown; & = joins results of further samples; [ ] = another dose, or the depositor's remark. Only part of the results is shown; the hit share may differ from the screen's.
# Sample of the layout, 7 compounds:
# Assay codes – A = miR-21 FLuc; B = GLA inh pH 4.5; C = Rango-impB inh; D = Rango release inh
Cc1[nH]n(-c2ccc([N+](=O)[O-])cc2)c(=O)c1C=NCCN1CCN(C(=O)c2cccc(F)c2)CC1
  A: -2% | B: -4 | C: -0.7% | D: -4%
CCc1ccc2nc(-c3cccc(C)c3)nc(SCC(=O)NCC3CCCO3)c2c1 (stereo not given)
  A: 0% | B: 0 | C: 0.7% | D: -1%
C#CCOCCOCCOCCNc1nc(N2CCN(C(=O)Cn3cc(CC(C)O)nn3)CC2)nc(N2CCN(C(=O)[C@H](CCCCN)n3cc(CCC(=O)O)nn3)CC2)n1 (stereo not given in full)
  A: -3% | B: -4 | C: 1.9% | D: -16%
O=C(NCc1cn2ccsc2n1)c1cccc(C(F)(F)F)c1
  A: -4% | B: 6 | C: -5.2% | D: 3%
O=C(NCc1ccccn1)c1ccc(Cl)c(S(=O)(=O)NCc2ccccc2)c1
  A: nt | B: nt | C: 2.1% | D: -5%
CCOC(=O)c1ccc(NS(=O)(=O)c2ccc3oc(=O)[nH]c3c2)cc1
  A: -4% | B: nt | C: 1.0% | D: -6%
C=CCOc1ccc(Br)cc1CNCCO
  A: -3% | B: 2 | C: -1.1% | D: 2%

# Main list, previewed entries included:
# Assay codes – A = miR-21 FLuc; B = GLA inh pH 4.5; C = Rango-impB inh; D = Rango release inh
Cc1[nH]n(-c2ccc([N+](=O)[O-])cc2)c(=O)c1C=NCCN1CCN(C(=O)c2cccc(F)c2)CC1
  A: -2% | B: -4 | C: -0.7% | D: -4%
CCc1ccc2nc(-c3cccc(C)c3)nc(SCC(=O)NCC3CCCO3)c2c1 (stereo not given)
  A: 0% | B: 0 | C: 0.7% | D: -1%
C#CCOCCOCCOCCNc1nc(N2CCN(C(=O)Cn3cc(CC(C)O)nn3)CC2)nc(N2CCN(C(=O)[C@H](CCCCN)n3cc(CCC(=O)O)nn3)CC2)n1 (stereo not given in full)
  A: -3% | B: -4 | C: 1.9% | D: -16%
O=C(NCc1cn2ccsc2n1)c1cccc(C(F)(F)F)c1
  A: -4% | B: 6 | C: -5.2% | D: 3%
O=C(NCc1ccccn1)c1ccc(Cl)c(S(=O)(=O)NCc2ccccc2)c1
  A: nt | B: nt | C: 2.1% | D: -5%
CCOC(=O)c1ccc(NS(=O)(=O)c2ccc3oc(=O)[nH]c3c2)cc1
  A: -4% | B: nt | C: 1.0% | D: -6%
C=CCOc1ccc(Br)cc1CNCCO
  A: -3% | B: 2 | C: -1.1% | D: 2%
CCOc1ccc(CCNC(=O)CSc2cc(=O)n(C)c3ccc(Cl)cc23)cc1OCC
  A: 0%&-7% | B: 3 | C: ? | D: -5%
COCCNC(=O)/C(C#N)=C/c1ccc(OCc2ccccc2)cc1
  A: -13% | B: -18 | C: -1.3% | D: 4%
CCNc1ccc(Br)cc(C(=O)/C=C/c2ccc(Cl)cc2Cl)c1=O
  A: -14% | B: -1 | C: 1.9% | D: ?
Cc1ccc(OCC(=O)Nc2ccccc2F)cc1C
  A: -70% | B: -8 | C: -0.1% | D: -11%
CN(c1ccccc1)S(=O)(=O)c1ccc(NC(=S)Nc2ccccc2)cc1
  A: -9% | B: 6 | C: -4.2% | D: 3%
CC(=O)Nc1ccc(CN2CCc3c([nH]c4ccccc34)C2C(C)(C)C)cc1 (stereo not given)
  A: 8% | B: nt | C: -3.6% | D: -27%
O=C(NCCN1CCOCC1)C1CCN(S(=O)(=O)N2CCCCC2)CC1
  A: -3% | B: -7 | C: 1.4% | D: -12%
O=C1C(Cl)=C(N2CCCC2)C(=O)N1c1ccccc1F
  A: 7% | B: nt | C: ? | D: ?

# Assay codes – A = miR-21 FLuc; B = GLA inh pH 4.5; C = Rango-impB inh; D = Rango release inh
O=C(Nc1cccc(C(F)(F)F)c1)/C(=C\c1ccco1)NC(=O)c1cccs1
  A: -8% | B: -5 | C: 9.2% | D: 15%
COc1ccccc1NS(=O)(=O)c1cccc(C(=O)N/N=C/c2cn(-c3ccccc3)nc2-c2ccccc2)c1
  A: 18% | B: -1 | C: -1.3% | D: 6%
CC(C)C[C@@H](CN)NC(=O)c1nc[nH]c1C(=O)N[C@@H](CC(=O)O)C(=O)CNC[C@H](C)NC(=O)c1nc[nH]c1C(=O)N[C@@H](CC(=O)O)C(=O)O
  A: nt | B: nt | C: 0.3% | D: 2%
COc1ccc(-n2c(C)c(C(=O)O)c3cc(OC)c4ccccc4c32)cc1
  A: 0% | B: 1 | C: -2.6% | D: -12%
NC(=O)C1CCN(C(=O)COc2ccc3ccccc3c2)CC1
  A: -11% | B: -8 | C: 4.4% | D: 1%
CCn1c(=O)c2c(nc(SCC(=O)Nc3ccccc3)n2C)n(C)c1=O
  A: 2% | B: nt | C: 0.9% | D: 6%
O=c1c2ccccc2nc2c3ccccc3ncn12
  A: -11% | B: 5 | C: -2.9% | D: 4%
CC(C)(C)NCC(O)CON=C1c2ccccc2-c2ccccc21 (stereo not given)
  A: 22% | B: -4 | C: -0.1% | D: 28%
O=C(CN1CCN(S(=O)(=O)c2ccccc2C(F)(F)F)CC1)NCc1cccs1
  A: nt | B: nt | C: 1.1% | D: 18%
Cc1nn(C)c(C)c1CNC(=O)Nc1cccc(Cl)c1C
  A: -16% | B: 8[21.1 µM] | C: 0.7% | D: 26%
CCOc1ccc(NS(=O)(=O)c2cccc(C(=O)N(C)Cc3ccco3)c2)cc1
  A: nt | B: nt | C: 2.0% | D: -12%
COc1cc(O)c(/C=N/NC(=O)c2ccncc2)c(OC)c1[N+](=O)[O-]
  A: -3% | B: -10 | C: -0.6% | D: 13%
COc1cc2c(C(=O)OCCN(C)C)c(CSc3ccccc3)n(C)c2cc1Br
  A: 4% | B: -9 | C: -2.3% | D: -21%
CC1CCN(c2cc(=O)n(C3CCCCC3)c(=O)[nH]2)CC1
  A: -6% | B: 4 | C: -2.5% | D: 2%
CCOC(=O)C1Oc2ccccc2C(c2ccoc2)=C1C(=O)OC (stereo not given)
  A: nt | B: -3 | C: -0.4% | D: 11%

# Arranged by value in Rango-impB inh (rising): 3 from the list above.
smiles	miR-21 FLuc	GLA inh pH 4.5	Rango-impB inh	Rango release inh
O=c1c2ccccc2nc2c3ccccc3ncn12	-11%	5	-2.9%	4%
Cc1nn(C)c(C)c1CNC(=O)Nc1cccc(Cl)c1C	-16%	8[21.1 µM]	0.7%	26%
O=C(NCCN1CCOCC1)C1CCN(S(=O)(=O)N2CCCCC2)CC1	-3%	-7	1.4%	-12%

# Other records
# Assay codes – A = miR-21 FLuc; B = GLA inh pH 4.5; C = Rango-impB inh; D = Rango release inh
Cc1cc(C)nc(N2CCN(c3nc(-c4ccccc4)nc4c3oc3ccccc34)CC2)n1
  A: nt | B: nt | C: -0.4% | D: 4%
O=C(NC1CCCCC1)C(c1c(F)cccc1Cl)N(C(=O)c1csnn1)C1CC1 (stereo not given)
  A: 0% | B: nt | C: -0.4% | D: 5%
O=C(Nc1ccc(Cc2ccncc2)cc1)c1ccc(Br)o1
  A: -26% | B: -11 | C: 7.8% | D: 6%
C/C=C/c1ccc(OCCCCN2CCN(CC)CC2)c(OC)c1
  A: -10% | B: 6 | C: 1.4% | D: -9%
Cc1cccnc1NC(=O)Nc1ccccc1
  A: -50% | B: 12 | C: -0.8% | D: ?
COc1ccccc1-c1cc2ccccc2[nH]1
  A: -58% | B: -9 | C: -0.1% | D: 0%
COc1ccc(OC)c(CCNC(=O)CC2Oc3ccccc3NC2=O)c1 (stereo not given)
  A: -10% | B: 1 | C: 5.1% | D: -4%
COc1ccc(OC)c2c(C)cc(C)nc12
  A: -8% | B: 0 | C: 1.1% | D: 7%
CCc1[nH]nc2c1C1(C(=O)N(Cc3ccccc3)c3ccccc31)C(C#N)=C(N)O2 (stereo not given)
  A: 5% | B: -13 | C: -0.2% | D: 0%
Cc1cc(C)c(N=Cc2c(O)c3ccccc3oc2=O)c(C)c1
  A: 0% | B: nt | C: -4.1% | D: -2%
CCOC(=O)CSc1nc(Cc2ccccc2)nc2ccccc12
  A: -1% | B: -6 | C: -0.1% | D: 4%
CC(=O)Nc1ccc(NC(=O)CSc2nc3[nH]ncc3c(=O)n2-c2ccccc2)cc1
  A: 0% | B: nt | C: -2.6% | D: ?
N=c1c(C(=O)NCC2CCCO2)cc2c(=O)n3ccccc3nc2n1C1CCCCC1 (stereo not given)
  A: -8% | B: nt | C: ? | D: ?
COc1ccc(NC(=S)NCCc2ccccc2OC)c(OC)c1
  A: 0% | B: -14 | C: -0.5% | D: 3%
O=C1[C@H]2[C@H](C=CC[C@H]2C(=O)N2CCOCC2)CCN1Cc1ccccc1
  A: nt | B: nt | C: 4.3% | D: 9%

# Assay codes – A = miR-21 FLuc; B = GLA inh pH 4.5; C = Rango-impB inh; D = Rango release inh
NS(=O)(=O)c1ccc(CNC(=O)c2cc(-c3ccccn3)nc3ccc(Cl)cc23)cc1
  A: -22% | B: -5 | C: ? | D: -10%
CCOc1ccc(NS(=O)(=O)c2ccc(C(=O)NCC(c3ccc(OC)cc3)N3CCOCC3)cc2)cc1 (stereo not given)
  A: nt | B: nt | C: 2.6% | D: 2%
CC(C)C(NC(=O)c1cccs1)c1nnc(SCC(=O)Nc2nccs2)n1C (stereo not given)
  A: -4% | B: 7 | C: 0.2% | D: 1%
CC(C)(C)C(=O)OCc1nc(-c2ccc(O)c(O)c2)cs1
  A: -17% | B: -5 | C: -2.0% | D: 8%
O=C(c1cc(COc2ccc(F)c(F)c2)on1)N1CCN(C/C=C/c2ccccc2)CC1
  A: -6% | B: nt | C: -1.1% | D: 1%
O=C(c1cnn2c(C(F)(F)F)cc(-c3ccccc3)nc12)N1CCCc2ccccc21
  A: -5% | B: 6 | C: -4.7% | D: 7%
Cc1nc(NC(=O)CN2CCOCC2)sc1-c1ccccc1
  A: -35% | B: -4 | C: 3.3% | D: -11%
O=C(COC(=O)C(c1ccccc1)c1ccccc1)NCc1ccco1
  A: 0% | B: -6 | C: 0.3% | D: -4%
Cc1cccc(CCNC(=O)c2cc(S(=O)(=O)N3CCCCC3)c[nH]2)c1
  A: 5%&5% | B: nt | C: 1.1% | D: 1%
COC(=O)c1ccc(NC(=O)C(=O)N2CCN(C(=S)Nc3ccc(OC)cc3)CC2)cc1
  A: 16% | B: 2 | C: -0.1% | D: -2%
CCCNC(=O)N1CCN(c2nc(C(C)C)c3c(c2C#N)CC(C)(C)OC3)CC1
  A: -6% | B: -2 | C: 0.0% | D: 22%
CC(C)c1ccc(N(CC(=O)NCCSC(C)(C)C)S(C)(=O)=O)cc1
  A: -35% | B: -3 | C: 1.6% | D: 1%
O=C(Nc1cc2c(cc1Br)OCCO2)c1ccco1
  A: -66% | B: -1 | C: 2.2% | D: 1%
O=C(COC(=O)C1CC(=O)N(Cc2ccco2)C1)Nc1ccccc1[N+](=O)[O-] (stereo not given)
  A: nt | B: nt | C: -0.3% | D: 15%
COc1ccccc1N(Cc1cc2cccc(C)c2[nH]c1=O)C(=O)C(C)C
  A: 0% | B: 4 | C: 0.3% | D: -1%

# Assay codes – A = miR-21 FLuc; B = GLA inh pH 4.5; C = Rango-impB inh; D = Rango release inh
CCOC(=O)N1CCN(C2CC(=O)N(c3ccc(Cl)c(Cl)c3)C2=O)CC1 (stereo not given)
  A: -4% | B: 1 | C: 0.0% | D: 1%
CCOc1ccc(S(=O)(=O)N2CCCC(C(=O)N3CCCC3)C2)cc1 (stereo not given)
  A: -4% | B: nt | C: -1.9% | D: -1%
CCOC(=O)c1nnc2ccnn2c1N
  A: -6% | B: 1 | C: 0.9% | D: -16%
COc1cccc(-c2nc(CS(=O)CC(=O)O)c(C)o2)c1 (stereo not given)
  A: -3% | B: -6 | C: 2.0% | D: 0%
CCCCC(CC)C(=O)O (stereo not given)
  A: nt | B: nt | C: -2.2% | D: 4%
Nc1cc(=O)[nH]c(SCC(=O)Nc2cc(Cl)ccc2Cl)n1
  A: -1% | B: 5 | C: -3.1% | D: -1%
COc1cc(OC)cc(C(=O)N[C@H](C(=O)OCC(=O)NC(C)c2ccccc2)C(C)C)c1 (stereo not given in full)
  A: -1% | B: -17 | C: -3.9% | D: -15%
CCOC(=O)COc1c(Cl)cc(C2NC(=S)NC(c3ccccc3)=C2C(C)=O)cc1OCC (stereo not given)
  A: -2% | B: -3 | C: ? | D: -1%
